Screening data: PubChem, National Center for Advancing Translational Sciences (NCATS)
RE007 growth inh = less growth of the S. pombe RE007 Vpr strain | S. pombe RE007 Vpr strain, BacTiter-Glo ATP luminescence, 24 h; control for the full effect not named in the record | Potency, µM (highest dose often 92.2 µM), inactives show top-dose activity change, negative = less growth | actives 0.21% (n = 360,000) | AID 651644; active = well fitted falling curve with a large enough effect; inconclusive = small, poorly fitted or top-dose-only effect; inactive = no such curve, though single readings can be large or run the other way;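 note: % is set by controls: 0 for no effect and ±100 for the full control effect; nearly all actives have a fitted effect of over 50% in size; the assay follows cell death caused by Vpr and the record does not say whether a fall means rescue or toxicity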
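Fission yeast strain RE007, carrying one chromosomally integrated HIV-1 vpr copy, was seeded at OD 0.01 in PMG+AL medium with 23 nL pinned compound. After 24 h at 30 °C and 99% humidity, viability was read by BacTiter-Glo luminescence.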
Marburg entry inh = blocks Marburg virus binding to or entry into cells. Potency, µM (series often up to 37.8 µM), for the others: top-dose activity change, negative = inhibition, hits mostly inhibitors. Marburg virus pseudotyped entry inhibition, cell reporter; control for the full effect not named in the record; about a third of the inactives were read at about 46 µM. actives 1.8% (n = 300,000). AID 540276; active = well fitted inhibition curve with a large enough effect; inconclusive = small, poorly fitted or top-dose-only effect, or effect the other way; inactive = flat fitted curve, though single readings scatter; tested in HEK293 cells; about a fifth of its hits are not listed in these tables; note: % is set by controls: 0 for no effect and ±100 for the full control effect; luciferase read-out
Cruzain inh Det = inhibitors of Trypanosoma cruzi cruzain with detergent; P25779; purified cruzain, Z-FR-AMC fluorescence, 0.01% Triton; Potency, µM, for inactives: max response, negative = inhibition, most hits filed as inhibitors; actives 0.43% (n = 200,000); AID 1478;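 note: plate controls were neutral wells for no effect and buffer without enzyme for full effect; nearly all actives have a fitted effect of over 40% in size; top concentration of the series not given in the record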
Target sequence (P25779 123-467 limits assumed): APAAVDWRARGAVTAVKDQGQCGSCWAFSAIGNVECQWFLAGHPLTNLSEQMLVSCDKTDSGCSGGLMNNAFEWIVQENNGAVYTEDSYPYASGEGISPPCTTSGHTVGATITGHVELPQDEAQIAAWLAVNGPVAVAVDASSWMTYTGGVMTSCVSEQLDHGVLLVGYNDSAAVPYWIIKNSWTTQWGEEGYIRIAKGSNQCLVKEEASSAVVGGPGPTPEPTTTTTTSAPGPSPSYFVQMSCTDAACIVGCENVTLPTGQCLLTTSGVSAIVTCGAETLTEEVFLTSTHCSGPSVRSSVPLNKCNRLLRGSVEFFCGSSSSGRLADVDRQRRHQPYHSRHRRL
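15 min RT preincubation of 1.5 nM cruzain with compound, then 2 uM Z-FR-AMC added; kinetic AMC fluorescence, 60 s delta. Triton X-100 0.01%, pH 5.5.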
SARS PLP yeast = blocks SARS-CoV papain-like protease in a yeast assay. actives 0.19% (n = 330,000). Potency, µM (highest dose often 32.9 µM), for the others: at the highest dose activity, positive = growth rescue. S. cerevisiae expressing SARS-CoV PLpro, growth rescue; control for the full effect not named in the record; active means well fitted rising curve with a large enough effect; inconclusive means small, poorly fitted or top-dose-only effect; inactive means no such curve, though single readings can be large or run the other way; note: 0% is about no effect; nearly all actives have a fitted effect of over 55% in size; growth read by luminescence after 48 h
NS1 inh = inhibitors of influenza NS1 protein function | Potency, µM (top dose mostly 46.1 µM), inactives show at the highest dose activity, positive = more growth | actives 0.4% (n = 270,000) | S. cerevisiae slowed by influenza A NS1, growth recovery by OD600; active means well fitted rising curve with a large enough effect; inconclusive means small, poorly fitted or top-dose-only effect; inactive means no such curve, though single readings can be large or run the other way; note: nearly all actives have a fitted effect of over 50% in size
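S. cerevisiae expressing influenza A NS1, grown in glucose, washed, then diluted 1:100 into pH 6.0 -URA galactose medium with 23 nl compound. Growth recovery read as OD600; NS1-free strain serves as control.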
Cruzain noTriton = blocks cruzain activity in detergent-free assay; Potency, µM, for inactives: max response, negative = inhibition, most hits filed as inhibitors; actives 2.3% (n = 200,000); purified cruzain, Z-FR-AMC fluorescence, no detergent; P25779;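 note: plate controls were enzyme without inhibitor for no effect and buffer without enzyme for full effect; nearly all actives have a fitted effect of over 40% in size; top concentration of the series not given in the record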
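Detergent-free condition (0.00005% Triton X-100) in acetate buffer pH 5.5 with DTT. 1.5 nM enzyme and compound were pre-mixed 15 min, then 2 uM Z-FR-AMC substrate added; reaction progress from fluorescence change between first and third reads (60 s).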
2A StopGo = FMDV 2A StopGo reporter, luciferase signal. human cells with a luciferase reporter of 2A StopGo recoding; control for the full effect not named in the record. Potency, µM (titrated, usually from 57.9 µM), for the others: at the highest dose signal change, negative = less light. actives 1.2% (n = 410,000); active = well fitted falling curve with a large enough effect; inconclusive = small, poorly fitted or top-dose-only effect; inactive = no such curve, though single readings can be large or run the other way; tested in HEK293T cells; note: % is set by controls: 0 for no effect and ±100 for the full control effect; nearly all actives have a fitted effect of over 45% in size; luciferase light after 4 h
LASV entry inh = blocks Lassa virus binding to or entry into cells | Lassa virus pseudotype entry inhibition, cell reporter; control for the full effect not named in the record | Potency, µM (highest dose often 37.9 µM), without a hit: at the top dose activity change, negative = inhibition, hits mostly inhibitors | actives 1.2% (n = 300,000) | AID 540256; active means well fitted inhibition curve with a large enough effect; inconclusive means small, poorly fitted or top-dose-only effect, or effect the other way; inactive means flat fitted curve, though single readings scatter; tested in HEK293 cells; note: % is set by controls: 0 for no effect and ±100 for the full control effect; nearly all actives have a fitted effect of over 50% in size; luciferase read-out
Starred values were filed as active, the others as inactive; ? = inconclusive; nt = not tested or not shown; [ ] = dose if it differs, or a comment. Unless noted, calls come from the whole dose curve; as a rule, active = well fitted curve in the direction sought with a large enough effect; inconclusive = small, poorly fitted or top-dose-only effect, or another doubt; inactive = no such curve, though single readings can be large; an effect the other way counts as inactive or inconclusive. Potency is the fitted concentration of half-maximal effect.

SMILES	RE007 growth inh	Marburg entry inh	Cruzain inh Det	SARS PLP yeast	NS1 inh	Cruzain noTriton	2A StopGo	LASV entry inh
COC(=O)C1=C(C)N(Cc2ccc(C)cc2)C(=O)/C1=C\c1cc(OC)c(OC)c(OC)c1	-14%	?	-3.5%	-4%	23%	?	20µM*	?
CC1CN(C2CCN(C(=O)c3cccc(Cl)c3)CC2)CC(C)O1 (stereo unspecified)	18%	11%[46.1 µM]	1.5%	1%	0%	2%	-17%	9%
CC(=O)Nc1ccc(NC(=O)C(C)OC(=O)c2c(C)nn(-c3ccccc3)c2Cl)cc1 (stereo unspecified)	1%	-9%	nt	-3%	nt	nt	-19%	3.5µM*
Cc1ccccc1S(=O)(=O)NC(=NCc1ccc(F)cc1)c1ccccc1	14%	-18%	nt	12%	nt	nt	50%[activator]	-23%
COc1ccc(C(=O)NNC(=O)C(=O)N2CCCCC2)cc1OC	?	6%	nt	7%	3%	nt	10%	-2%
CCOC(=O)c1c(NC(=O)c2ccc(N3C(=O)C4C5C=CC(C5)C4C3=O)cc2)sc2c1CCCC2 (stereo unspecified)	-4%	1%	2.7%	-6%	13%	13%	-6%	-20%
CSc1ncc(Cl)c(C(=O)N(Cc2ccc(N(C)C)cc2)Cc2ccco2)n1	nt	-4%[46.1 µM]	-8.4%	nt	nt	-9%	-23%	-28%[46.1 µM]
COc1ccc2nc(N3CCOCC3)cc(C)c2c1	-12%	?	-4.1%	5%	-2%	-2%	nt	?
CCC(=O)c1c(NCCc2ccccc2)cc(C)oc1=O	12%	1%	nt	-3%	-6%	nt	-18%	1%
COc1ccc(NS(=O)(=O)c2ccc3[nH]c(=O)[nH]c3c2)cc1OC	5%	1%[46.1 µM]	nt	8%	5%	nt	7%	nt
O=C(NC1CCCCCC1)c1c(O)c2cccc3c2n(c1=O)CCC3	nt	0%	-0.6%	-3%	-55%	-6%	nt	nt
CC(=O)Nc1ccc(C(=S)NCc2ccco2)cc1	13%	2%	7.3%	-8%	1%	-2%	-14%	-4%
O=C(Nc1ncccc1Cl)c1cc2ccccc2o1	-30%	nt	nt	-2%	-13%	nt	31%[activator]	nt
O=S(=O)(c1ccc(-c2cc(C(F)(F)F)on2)s1)N1CCN(c2ccccc2)CC1	nt	nt	3.2%	nt	nt	-12%	-10%	?
COc1ccc2oc(=O)c(C(=O)Nc3ccccc3O)cc2c1	-8%	nt	nt	-5%	-8%	nt	17%	nt
COc1cc(N=c2c([N+](=O)[O-])nn(-c3ccc4c(c3)OCCO4)n2O)cc(OC)c1	6%	?	-1.5%	-1%	8%	-10%	-27%	?
CN(C)c1ccc(C(CNS(=O)(=O)c2ccc(F)cc2F)N2CCOCC2)cc1 (stereo unspecified)	nt	nt	-1.1%	nt	nt	0%	-18%	11%[46.1 µM]
Cc1noc(C)c1CCC(=O)N1CCCC(N2CCN(c3ccc(F)cc3)CC2)C1 (stereo unspecified)	3%	3%	nt	7%	6%	nt	-2%	0%
COc1cccc(OCC(O)CNC(C)c2ccccc2)c1 (stereo unspecified)	-3%	nt	nt	0%	-3%	nt	-15%	nt
O=C(NCc1ccco1)C1CC(c2ccccc2C(F)(F)F)=NO1 (stereo unspecified)	3%	nt	nt	1%	-5%	nt	-7%	nt
O=C(c1ccc2c(=O)n(-c3ccccc3)c(=S)[nH]c2c1)N1CCCCC1	-10%	?	nt	0%	nt	nt	?	?
Cc1nn2c(NCCOCCO)c3c(nc2c1-c1ccccc1)CCC3	2%	-8%	nt	-1%	-1%	nt	-26%	2%
COc1ccc(CNC(=O)C(CCSC)NC(=O)c2ccco2)cc1 (stereo unspecified)	9%	8%	5.2%	14%	?	1%	5%	-5%
COc1ccc(-n2nc(C(=O)N(C)c3cc(Cl)ccc3OC)c3c4ccccc4n(C)c3c2=O)cc1	nt	-10%[46.1 µM]	-0.9%	nt	nt	-26%	?	8%[46.1 µM]
CC1CCN(c2nc(-c3cccnc3)nc3scc(-c4ccccc4)c23)CC1	1%	nt	-3.2%	7%	11%	?	-4%	nt
COc1ccc(/C(C)=N/NC(=O)CNC(=O)c2ccncc2)cc1	6%	7%[46.1 µM]	nt	-1%	2%	nt	-4%	5%
Cc1ccc(C)c(CN2C(=O)c3ccccc3S(=O)(=O)c3ccc(C(=O)N(C)C4CCCCC4)cc32)c1	nt	?	-2.0%	nt	nt	-19%	20%	-22%[46.1 µM]
O=C(NCc1ccc2c(c1)OCO2)C(=O)NC1CCCCC1	0%	7%[46.1 µM]	8.7%	4%	1%	-23%	-5%	1%
Cc1ccc(S(=O)(=O)Nn2cnnc2)cc1	2%	nt	nt	1%	6%	nt	-5%	nt
CNS(=O)(=O)c1ccc(NC(=O)c2cc(-c3ccncc3)nc3ccc(Cl)cc23)cc1	-16%	-13%	nt	3%	1%	nt	1%	-1%
COc1cc(NC(=O)c2ccc(Cl)cc2Cl)ccc1-c1cc2ccccc2oc1=O	-23%	-29%	1.0%	4%	0%	20µM*	3%	?
N#C/C(=C\c1ccc(-c2ccccc2Cl)o1)C(=O)Nc1nc2ccccc2s1	-19%	?	-4.7%	14%	11%	?	?	16%
CCN(CC)S(=O)(=O)c1cccc(C(=O)N[C@H](C(=O)NC2=NCCS2)C(C)C)c1	7%	?	nt	7%	nt	nt	0%	8%[46.1 µM]
O=C(CCCCC(=O)NCc1cccs1)NCc1cccs1	2%	-2%	0.9%	3%	4%	-5%	-1%	18%
CCOc1ccc(-n2c(O)c(C=Nc3ccc(NC(C)=O)cc3)c(=O)[nH]c2=O)cc1	11%	nt	nt	0%	-1%	nt	18%	nt
Cc1ccc(S(=O)(=O)Nc2nc3ccccc3nc2NCC2CCCO2)cc1 (stereo unspecified)	-14%	-8%	nt	1%	-6%	nt	23%	11%
COc1ccccc1Nc1ncc(C(=O)N2CCC(C(N)=O)CC2)c2ccccc12	-5%	19%	0.9%	-2%	-5%	0%	13%	2%
Cc1ccc(NC(=O)CN(C)C2CCCCC2)cc1Cl	8%	?	nt	4%	-18%	nt	-16%	?
COCC(N)(c1ccccc1)c1nc2ccccc2n1C (stereo unspecified)	-5%	25%	3.7%	-2%	-19%	3%	6%	?
Cc1ccc(NC(=O)c2ccc(NS(=O)(=O)c3c(C)noc3C)cc2)cc1C	6%	?	-7.6%	-2%	-10%	5%	3%	-8%
CCc1ccc(-c2nn(-c3ccc(OC)cc3)c3c2cnc2ccc(OC)cc23)cc1	nt	-2%[46.1 µM]	-1.9%	nt	nt	-1%	-16%	-6%[46.1 µM]
C=CCn1cnc2c(nnn2Cc2ccc(F)cc2)c1=O	7%	nt	nt	1%	0%	nt	4%	nt
CC(C)CN(CC(C)C)c1nnc(NC(=O)Nc2cccc(C(F)(F)F)c2)s1	nt	-3%[46.1 µM]	-8.3%	nt	nt	?	?	-8%[46.1 µM]
CN(CC(=O)Nc1nc2ccc(F)cc2s1)S(=O)(=O)c1ccc(Cl)cc1	-11%	-26%	-5.1%	4%	2%	-12%	nt	-21%
Cc1ccc(C)c(SCC(=O)NC(=O)Nc2ccc3c(c2)OCCO3)c1	1%	-13%	-8.8%	13%	-8%	7%	-8%	-5%
CN(C)S(=O)(=O)c1cccc(COC(=O)c2ccc3c(c2)OCO3)c1	5%	11%[46.1 µM]	nt	-1%	nt	nt	-3%	-8%[46.1 µM]
COc1cc(-c2ccc3c(=O)c4ccccc4n(C)c3c2)cc(OC)c1OC	-1%	nt	nt	-4%	-59%	nt	?	nt
COc1cccc(-n2cnc3sc4c(c3c2=O)CCC4)c1	-10%	2%[46.1 µM]	nt	-1%	-3%	nt	-5%	-8%
O=C(O)[C@H](CO)Nc1ncnc2sc3c(c12)CCC3	2%	-5%	3.1%	0%	1%	0%	17%	-3%
CCCC(=O)NNc1c2ccccc2nc2ccccc12	-5%	23%	-4.4%	-1%	-10%	-4%	-15%	0%
Cc1cc(C)n(CCNC(=O)c2cc(COc3c(F)cccc3F)on2)n1	3%	-4%[46.1 µM]	nt	1%	4%	nt	-11%	-6%[46.1 µM]
O=C(c1cccs1)N1CCC(Cc2ccccc2)CC1	-12%	-3%	-4.3%	16%	-17%	-10%	-18%	0%
CN(C)C(=O)COC(=O)c1ccccc1Sc1ccccc1C#N	8%	0%[46.1 µM]	nt	0%	nt	nt	29%	nt
O=C(/C=C/Nc1cccc(O)c1)c1ccccc1	1%	?	-9.0%	-16%	-70%	-19%	nt	?
COc1ccc(NS(=O)(=O)c2ccc(O)c(NC(=O)c3cc4c(C)nn(-c5ccc(F)cc5)c4s3)c2)cc1	5%	?	-7.2%	7%	4%	-3%	-16%	-5%
CCCOc1cccc(C(=O)N2CCN(C(=O)C3CCCO3)CC2)c1 (stereo unspecified)	5%	8%	nt	2%	0%	nt	-10%	9%
CCC(C)NC(=O)c1ccccc1NC(=O)CN(c1ccc(OC)cc1)S(C)(=O)=O (stereo unspecified)	2%	-6%	-0.1%	6%	-2%	7%	6%	4%
CCC1(C)NC(=O)N(CC(=O)Nc2sc3c(c2C(N)=O)CCC3)C1=O (stereo unspecified)	0%	-12%	-9.5%	3%	6%	-5%	4%	4%
Cc1cc(NC(=O)CSc2ccnc(=O)[nH]2)no1	-2%	10%	nt	-2%	nt	nt	1%	5%
O=C(O)c1cc2nc3c(c(C(F)(F)F)n2n1)CCCC3	2%	?	nt	1%	1%	nt	-3%	23%
COc1cc(OC)c(NC(=O)C2CC(=O)N(c3ccc4c(c3)OCCO4)C2)cc1Cl (stereo unspecified)	2%	0%	nt	6%	nt	nt	-23%	20%
COc1cccc(C2Nc3ccccc3NC3=C2C(=O)CC(C)(C)C3)c1 (stereo unspecified)	2%	-21%[46.1 µM]	nt	-4%	-3%	nt	2%	-12%[46.1 µM]
COc1cc(C2NCC(c3ccc(Cl)cc3Cl)c3c2[nH]c2ccccc32)cc(OC)c1OC (stereo unspecified)	27%	16µM*	-9.6%	-16%	-35%	11%	-28%	?

Not a hit list; overall some 4.7% were active at least once.
